# Screening data: PubChem BioAssay, several laboratories
# UUG fidelity: modulators of start codon recognition fidelity in yeast. 0.13% of 350,000 active. S. cerevisiae UUG-firefly luciferase reporter, luminescence/redox ratio. AID 602363. activity score, % at 18.7 µM;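 active = replicate mean at a twofold rise or more, about +100% in these data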;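 also: firefly luciferase made from a UUG start codon reports start codon fidelity; reporter light over untreated wells divided by growth signal over untreated wells; some hits fall short of that in this replicate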
# PABP FP inh: blocks human PABP binding to poly(A) RNA; fluorescence polarization; inhibition, % at 35 µM; 1% of 290,000 active;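 active = 50% or more with normal probe brightness, or confirmed in later tests; inconclusive = above 50% with abnormal brightness, or retests that disagree; inactive = below 50% or failed in later tests; about a fifth of its hits are not listed in these tables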;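 also: calls also rest on retests at 20 µM and on dose response follow-up; controls were probe without protein and protein plus probe with vehicle; some compounds called inactive have numbers as strong as hits; many hits fall short of the cut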
# Target sequence (P11940 whole entry, looked up): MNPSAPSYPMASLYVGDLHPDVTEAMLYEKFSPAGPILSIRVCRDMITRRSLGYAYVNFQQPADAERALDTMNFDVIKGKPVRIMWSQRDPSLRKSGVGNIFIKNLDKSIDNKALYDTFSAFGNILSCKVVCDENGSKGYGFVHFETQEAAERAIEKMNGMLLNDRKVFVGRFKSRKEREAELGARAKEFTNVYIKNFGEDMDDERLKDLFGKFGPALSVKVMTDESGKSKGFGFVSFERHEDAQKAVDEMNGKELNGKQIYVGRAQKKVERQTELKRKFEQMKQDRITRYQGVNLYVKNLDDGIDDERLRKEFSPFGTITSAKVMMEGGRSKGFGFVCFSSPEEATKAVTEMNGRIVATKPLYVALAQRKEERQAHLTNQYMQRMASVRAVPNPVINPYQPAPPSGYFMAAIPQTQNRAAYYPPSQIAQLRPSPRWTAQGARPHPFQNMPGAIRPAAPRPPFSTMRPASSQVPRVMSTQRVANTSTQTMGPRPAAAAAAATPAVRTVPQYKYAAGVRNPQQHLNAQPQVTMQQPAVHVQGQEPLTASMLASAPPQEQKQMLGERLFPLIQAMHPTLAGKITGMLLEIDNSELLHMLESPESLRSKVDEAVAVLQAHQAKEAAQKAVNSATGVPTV
# MT1-MMP act inh: blocks activation of human MT1-MMP | 0.061% of 360,000 active | AID 651647 | HT1080 RFP-PRO-GFP cells, GFP/RFP ratio fluorescence, overnight; percent of plate control window, DMSO zero | P50281 | GFP/RFP ratio change, % at 20 µM;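 active = GFP/RFP ratio change of at least 30% with cell ATP level not reduced by more than half and red fluorescence within 50% of control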; also: strong numbers were not always called active
#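 Material – HT1080 RFP-PRO-GFP cells · Control set – DMSO wells and RFP-L50D-GFP cells · Incubation – overnight cell settling, then overnight compound exposure, 37 °C, 5% CO2 · Compound dosing – single-point 20 µM compound, 1% DMSO · Read-out – GFP/RFP fluorescence ratio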
# Rce1 inhib: blocks yeast Ras-converting enzyme | 0.27% of 290,000 active | calls only | Q03530 | AID 2563 | yeast membranes, quenched prenylated peptide cleavage fluorescence;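 active = fall in fluorescence gain of 50% or more versus controls, with final raw signal at or below 3038400; inconclusive = same 50% fall but final raw signal above 3038400; inactive = fall in fluorescence gain under 50%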;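 also: plate controls were neutral control wells for no effect and wells lacking membranes for full effect; tested at 10 µM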
# eIF4H FP inh: inhibitors of RNA binding by human eIF4H; Q15056; eIF4H fluorescence polarization binding assay; inhibition, % at 35 µM; 0.94% of 290,000 active; AID 2012;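 active = 50% or more with normal probe brightness, or confirmed in later tests; inconclusive = above 50% with abnormal brightness, or retests that disagree; inactive = below 50% or failed in later tests; about a fifth of its hits are not listed in these tables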;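 also: calls also rest on retests at 20 µM and on dose response follow-up; 0% = protein and probe with vehicle and 100% = probe without protein; strong numbers were not always called active; many hits fall short of the cut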
# CSC inhib: blocks cancer stem cells; inhibition, % at 7.5 µM; cancer stem cell-like cells viability, luminescence; 1.1% of 300,000 active; AID 2717;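 active = mean at 75% or more and at least half the replicates too; inconclusive = mean and replicates disagree; tested in HMLE shEcad cells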;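 also: 0% = median of negative and 100% = median of positive control wells; the first replicate is given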
# Env fusion inh: HIV envelope-mediated fusion inhibition; HeLa-JRFL Env/CEM21 cell fusion, luciferase; AID 651610; 1.1% of 360,000 active; inhibition, % at 12.3 µM;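 active = mean replicate inhibition score of at least 50 and every replicate individually at or above 50; inconclusive = only one of the two criteria met; inactive = mean below 50 and not all replicates reaching 50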;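 also: 0% = plate neutral controls and 100% = maraviroc near 300 nM; one replicate is shown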
# MT1-MMP act inh RFP: second read-out of MT1-MMP act inh, no call of its own (marks repeat the call); RFP signal change, %; measured here: RFP expression control read;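 0 = vehicle wells; hits needed this value within 50% of zero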
# The depositor's hits bear a star; i = inactive; ? = inconclusive; nt = not tested or not shown.
SMILES,UUG fidelity,PABP FP inh,MT1-MMP act inh,MT1-MMP act inh RFP,Rce1 inhib,eIF4H FP inh,CSC inhib,Env fusion inh
OC(CN(c1ccccc1)c1ccccc1)Cn1cnc2ccccc21 (stereo unspecified),-17,8,-9,-22,i,-6,-3,nt
COc1cc(OC)cc(-n2nnnc2SCC(=O)N2CCCc3ccccc32)c1,-3,-3,-6,-3,i,5,3,nt
CC(C)(C)c1ccc(C2(C)NC(=O)N(CC(=O)NC3CCS(=O)(=O)C3)C2=O)cc1 (stereo unspecified),-11,nt,21,-2,nt,nt,nt,9
NC(=O)C(C(=O)/C=C/c1ccc(Cl)cc1)=C1SCCS1,-28,-2,-14,-25,nt,-2,43,-104
O=C(c1ccc(Br)cc1)N1CCC2(CC1)NCCc1[nH]cnc12,-17,nt,-1,5,i,nt,7,-13
COC(=O)c1ccccc1NC(=O)CSc1n[nH]c(C)n1,0,3,2,2,i,1,-9,nt
Cn1c(=O)n(C)c2cc(/C=N/NC(=O)c3cccc(Br)c3)ccc21,-12,0,7,11,i,-10,-8,-9
O=S(=O)(NCc1cccnc1)c1ccc(Cl)cc1,-14,15,3,-1,i,5,-2,-14
O=C(CNC(=O)OCc1ccccc1)Oc1cc2oc(=O)cc(-c3ccccc3)c2cc1Cl,-3,4,-19,-7,i,-12,10,nt
O=C(Nc1cccc(O)c1)c1cc(S(=O)(=O)N2CCCC2)ccc1Cl,-5,-2,13,-15,i,2,6,nt
COc1ccc(/C=C2\SC(N3CCc4ccccc4C3)=NC2=O)cc1,-14,-8,8,3,i,5,-8,2
COC(=O)C1=C(C)OC(N)=C(C#N)C1c1ccsc1 (stereo unspecified),-9,-4,5,8,i,4,-15,-42

# 2 compounds drawn at random from the list so far:
SMILES,UUG fidelity,PABP FP inh,MT1-MMP act inh,MT1-MMP act inh RFP,Rce1 inhib,eIF4H FP inh,CSC inhib,Env fusion inh
Cn1c(=O)n(C)c2cc(/C=N/NC(=O)c3cccc(Br)c3)ccc21,-12,0,7,11,i,-10,-8,-9
COC(=O)c1ccccc1NC(=O)CSc1n[nH]c(C)n1,0,3,2,2,i,1,-9,nt

# Next compounds follow:
SMILES,UUG fidelity,PABP FP inh,MT1-MMP act inh,MT1-MMP act inh RFP,Rce1 inhib,eIF4H FP inh,CSC inhib,Env fusion inh
CN(C)CCN(C(=O)c1ccc(S(=O)(=O)N(C)CC2CCCO2)cc1)c1nc2cc3c(cc2s1)OCO3 (stereo unspecified),-2,-6,5,8,i,-4,1,5
CC(=O)c1cc(CN2C(=O)CCC2=O)cs1,-10,6,3,7,i,6,-8,nt
O=C(Cc1cccs1)NCc1cn2ccccc2n1,-10,-3,1,3,i,-11,-3,-109
COc1cc(CNC(=O)CCCC(=O)c2ccccc2)cc(OC)c1OC,-5,8,0,2,i,5,-26,5
O=C(C1CC1)N1CCN=C1SCc1ccccc1,-20,-1,-5,6,i,-2,6,6
COC(=O)CC1C(=O)NCCN1C(=O)OC(C)(C)C (stereo unspecified),0,13,-3,1,i,3,nt,-5
N#C/C(=C/c1ccccc1)C(=O)NCc1ccccc1,-14,-7,-1,1,i,4,-15,-4
O=C(c1ccc(Br)cc1)c1coc2ccc(O)cc12,nt,nt,-3,-7,i,nt,36,-448
CCOC(=O)c1nnn(-c2nonc2N)c1COc1c(C=O)cccc1OC,nt,16,2,5,i,-5,-6,nt
O=C(Nc1ccc(F)cc1)c1cc(-c2ccncc2)nc2c(Cl)cccc12,-13,4,-7,-6,i,-8,25,-8
Cc1cccc(OC(C)C(=O)Nc2nccs2)c1 (stereo unspecified),-1,8,-2,-3,i,-1,6,-27
COc1ccccc1CCc1nnc(CCC(=O)NCCOc2cccnc2)o1,-13,0,1,2,i,-6,-23,15
CCCCCC(=O)OC(CN1CCCCCC1)CN1CCCC1=O (stereo unspecified),nt,2,3,8,i,20,-3,10
O=C(Cn1nnc(-c2ccccc2)n1)NNC(=O)c1ccco1,nt,5,-2,5,i,3,-2,33
Fc1ccc(-c2cc3nc4c(c(N5CCOCC5)n3n2)CCCC4)cc1,-11,13,-6,-9,i,-1,1,nt
COc1ccc(S(=O)(=O)NC(C)C(=O)Nc2ccc3c(c2)OCCO3)cc1OC (stereo unspecified),nt,-1,-4,-2,nt,5,-18,-19
O=C(c1ccccn1)N1CC=C(c2ccccc2)CC1,nt,-8,1,5,nt,1,nt,8
CCN(CC)CCCNC(=O)CCc1ccccc1,-7,8,5,5,i,5,-9,nt
O=C(CCNS(=O)(=O)c1ccc(Cl)cc1)OCC(=O)c1ccc[nH]1,-19,-2,-1,4,i,5,-11,15
CCOc1ccc(Cl)cc1Nc1nc(NCCO)nc(N2CCCC2)n1,-18,nt,2,1,i,nt,2,1
COC(=O)CSc1nnc(CNC(=O)Cc2ccccc2)n1C,-9,-7,4,4,i,-4,-10,nt
Cc1ccc(NC(=S)N(CCCN2CCC(C)CC2)Cc2ccco2)cc1,-22,-14,3,0,i,-12,-6,7
COC(=O)c1[nH]c2cccc(Cl)c2c1NC(=O)CN1CCCCC1C (stereo unspecified),-18,6,4,2,i,-10,nt,34
Cc1ccc(S(=O)(=O)N2CCCCC2)cc1C(=O)Nc1ccc2cn[nH]c2c1,nt,2,3,-3,i,6,-8,nt
COc1ccccc1NC(=O)CSc1nnc(C)n1CCc1ccccc1,-24,3,4,2,i,-9,-5,-57
COc1ccccc1NC(=O)/C=C/C(N)=O,-14,2,1,1,i,-5,14,nt
Cc1ccc2c(c1)nnn2C1CCN(C(=O)NC23CC4CC(CC(C4)C2)C3)CC1,nt,13,nt,nt,i,-2,nt,nt
Cc1cc(C)cc(C(O)c2ncc(-c3ccc(C(F)(F)F)cc3)[nH]2)c1 (stereo unspecified),-11,nt,3,-1,nt,nt,nt,13
Cc1ccc(NC(=O)CCC(=O)N2CCC(c3ccccc3)=N2)cc1S(=O)(=O)N1CCCCC1,-19,nt,3,-3,nt,nt,nt,35
Cc1ccc(CNC(=O)CCS(=O)(=O)c2cc3c(cc2Cl)NC(=O)CO3)cc1,-21,8,4,5,i,-1,-7,2
CN(C)CCNC(=O)c1ccccc1-c1cc2ccccc2c(=O)o1,-3,8,0,1,i,16,2,-4
CCC(C)(C)NC(=O)CN(Cc1ccc2c(c1)OCO2)C(=O)CCC(=O)Nc1cc(C)ccn1,-13,8,0,2,i,2,nt,-3
O=C(Nc1ccccc1F)N(CCCN1CCOCC1)Cc1cc2cc3c(cc2[nH]c1=O)OCCO3,-10,-3,3,4,i,6,6,nt
Cc1c(NC(=O)OCCNC(=O)COc2c(Cl)cccc2Cl)sc(=S)n1C,18,-2,0,-9,i,-5,11,19
CNC(=O)CSc1nnc(-c2ccccn2)n1Cc1ccco1,-12,-10,1,2,i,-6,-7,13
CCOC(=O)N1CCC(NC(=O)Cn2ncc3ccccc32)CC1,-7,1,3,3,i,-4,13,nt
CSc1nc2ccccc2cc1/C=C(\C#N)c1ccc(Cl)cc1Cl,-24,-4,-3,1,i,-2,37,nt
CC1(C)CC(=O)C=C(Nc2ccc(Cl)c(Br)c2)C1,-14,-1,-1,-7,i,1,6,28
O=C(CC(=O)c1ccccc1O)c1cccc(F)c1,nt,2,-11,-10,i,1,0,nt
Oc1ccc(Cl)cc1CNCc1ccc(F)c(F)c1,-8,nt,6,6,nt,nt,8,-8
CCCCC1=CC2=CC(=O)C(C)(OC(=O)c3cnc4ccccc4n3)C(=O)C2=CO1 (stereo unspecified),nt,?,nt,nt,i,?,16,nt
O=C(COC(=O)CSc1ccccc1)Nc1ccc(F)cc1F,-9,nt,0,6,nt,nt,0,5
O=C1CCc2ccccc2N1Cc1ccccc1,-8,-1,-3,3,i,2,2,-16
COC(=O)c1ccc(C2C(C(=O)Nc3ccccc3C)=C(C)Nc3ncnn32)cc1 (stereo unspecified),-23,-3,1,1,i,3,-4,nt
CC1CCN(C(=O)c2ncn3c2c(=O)[nH]c2ccc(Br)cc23)CC1,5,nt,3,7,nt,nt,nt,10
Cc1ccc(C)c(S(=O)(=O)c2c(C)cc(C)[nH]c2=O)c1,-11,-1,-7,3,i,-3,-8,1
Cc1cc(N2CCCc3ccccc32)n2ncnc2n1,1,-3,0,5,i,-3,-5,-14
NC1=NC(=O)/C(=C/c2ccsc2)S1,-25,-7,-3,5,i,-3,-4,3
CC(CC(=O)NC1CCCCC1)S(=O)(=O)c1ccc2c(c1)NC(=O)CO2 (stereo unspecified),-5,-6,-2,2,i,-4,6,-7
COc1ccc(/C=C/C(=O)N(C)CC(=O)Nc2cccc(F)c2)cc1S(=O)(=O)N1CCCCC1,9,nt,-9,-10,nt,nt,nt,-105
O=C(CSC(=S)N1CCCCC1)Nc1nc(-c2ccccc2)c(-c2ccccc2)o1,-12,10,5,2,i,8,14,0
Cc1noc(/C=C/N(C)C)c1S(=O)(=O)N1CCCC(C(=O)NCc2ccccc2Cl)C1 (stereo unspecified),-7,-11,-15,-1,i,-1,-11,20
Cc1ccc(C)c(OCCC(=O)OCC(=O)Nc2ccc(N3CCOCC3)cc2)c1,17,nt,-1,7,i,nt,-5,-412
O=C(O)CCCC(=O)N1CCc2cc(S(=O)(=O)N3CCc4ccccc43)ccc21,-1,10,0,0,i,-10,-10,-5
O=C(COc1ccc(Br)cc1F)NC1CC1,-4,nt,2,-2,nt,nt,10,-12
Cc1ccc(C(=O)NC(=S)N2CCCC2)cc1,-28,-6,-1,5,i,-7,3,7
CCOc1ccccc1-c1cc(NC)ncn1,-11,nt,-1,2,nt,nt,nt,-1
COc1cc(CCC(=O)N2CCN(c3cccc(C)c3C)CC2)cc(OC)c1OC,1,-1,8,-9,i,-3,-12,20
Cc1cccc(NS(=O)(=O)c2ccc3[nH]c(=O)[nH]c3c2)c1C,-19,13,0,-4,i,6,-4,-11
CCc1ccc2nc(NC(=O)C3CCN(c4ncnc5sc(C)c(C)c45)CC3)sc2c1,2,nt,0,-5,nt,nt,9,-7

# (listing goes on)
SMILES,UUG fidelity,PABP FP inh,MT1-MMP act inh,MT1-MMP act inh RFP,Rce1 inhib,eIF4H FP inh,CSC inhib,Env fusion inh
C=C(C)c1cccc(C(C)(C)NC(=O)Nc2cc(C)ccn2)c1,-10,3,-7,-27,i,0,-6,nt
CCOc1ccc2nc(NC(=O)CCC(=O)c3cccs3)sc2c1,nt,-6,-5,1,nt,21,0,nt
Cc1cccc(CSc2nnc(Cn3c(=O)sc4ccccc43)n2C)c1,0,4,4,0,i,6,0,8
Cc1cccc(NS(=O)(=O)c2ccc(S(=O)(=O)N3CCCC3)cc2)c1,-10,nt,-1,-6,nt,nt,nt,3
O=C(CSc1nnc(-c2cccnc2)n1C1CCCCC1)NC1CCCC1,-1,0,8,6,i,-2,nt,-10
COCCn1nnnc1C(c1cc2cc(C)ccc2[nH]c1=O)N1CCN(C2CCCCC2)CC1 (stereo unspecified),13,6,-7,0,i,-10,nt,nt
CC(C)c1ccc(NC(=O)Nc2cnccn2)cc1,-21,4,-5,-6,i,-2,28,-37
N#Cc1cc(-c2ccccc2)nnc1Sc1ccc(F)cc1,-5,0,7,-1,i,-8,-6,nt
CN(CC(=O)Nc1ccc(F)c(F)c1F)C(=O)C1CCCCC1,-4,nt,-4,1,nt,nt,-14,-4
COc1ccc(NC(=O)CC(C)C)c(OC)c1,-9,-5,6,4,i,4,-3,nt
COc1cc(/C=C2\Oc3ccc(C#Cc4ccc(O)cc4)cc3C2=O)cc(OC)c1,-26,nt,-33,-26,nt,nt,115*,nt
COc1ccccc1NS(=O)(=O)c1ccc2oc(SC3CCOC3=O)nc2c1 (stereo unspecified),-9,4,2,0,i,-10,-4,nt
COc1ccccc1OCC(=O)NCC1CCCN(C(=O)c2ccccc2C(C)=O)C1 (stereo unspecified),-10,-1,-3,1,i,-1,-11,nt
